# Screens from PubChem.
# A1 inh = inhibitors of the anti-apoptotic protein A1, read as caspase activation; MEF A1-2A-BIM cells, Caspase-Glo 3/7 luminescence, 3 h; percent of clofoctol response, vehicle zero; caspase activation, % (no concentration beside the values); 330,000 compounds, 0.066% hits;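 active means over half of replicate activation scores above 10%, or exactly half above 10 with the replicate mean above 10; inconclusive means replicate mean below 10 yet half the replicates above 10; inactive means over half of replicates below 10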;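 further: wells of about 30 µL received 50 nL stock; many hits fall short of the cut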
# RanGTP-Imp inh = inhibitors of RanGTP-importin-beta interaction, primary screen, biochemical, FRET, CFP-Ran, YFP-importin-beta, homogeneous | AID 2216 | cell-free CFP-Ran/YFP-importin-beta FRET ratio | 300,000 compounds, 1.1% hits | inhibition, % (concentration not given with the values);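 active means most replicates above 15%; inconclusive means exactly half above 15%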;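 further: 0% = DMSO wells and 100% = Ran loaded with GDP instead of GTP; wells of about 40 µL received 100 nL stock; the first replicate is given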
# Calb FLC = affects C. albicans growth with fluconazole | C. albicans CaCi-2 (fluconazole-resistant clinical isolate) + fluconazole, Alamar Blue growth, 48 h | growth inhibition, % (test concentration not listed) | 300,000 compounds, 0.57% hits | AID 1979;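 active means most replicates above 75%; inconclusive means exactly half above 75%; inactive means most below 75%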;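 further: all wells also contain fluconazole at 8 µg/ml as a sub-toxic cotreatment; 0% = median of DMSO wells and 100% = median of geldanamycin control wells; wells of about 8 µL received 7.5 nL stock; the first replicate is given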
# Vif A3G = inhibitors of Vif binding to APOBEC3G peptide, primary screen, biochemical, TR-FRET, GST-Vif 1-94, biotin-A3G peptide, dose response retest (AID 1117319); TR-FRET GST-Vif / biotin-A3G peptide binding; higher % means a stronger effect; test concentration not given here; strong numbers were not always called active; inhibition, %; hits with a dose series show IC50 in µM; 260,000 compounds, 0.57% hits;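 active means above the screen mean plus three standard deviations and confirmed in dose response; inconclusive means results disagree or hit not tested in dose response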;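 further: Vif residues 1-94 fused to GST binding biotinylated APOBEC3G peptide 110-148; 0% = full assay without inhibitor and 100% = GST in place of GST-Vif; retest series ran down from 100 µM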
# rRNA inh HTS = inhibitors of bacterial rRNA selective over humanized ribosomes. E. coli WT GFP vs humanized-ribosome RFP mutants, fluorescence, 24 h; stronger effect = lower value; DMSO median 0, no signal -100. AID 720706. 350,000 compounds, 1.6% hits. GFP signal change (wild-type ribosome), % (no concentration beside the values);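 active means significant combined selectivity score with lowered wild-type GFP, culture density cut under 30%, mutant RFP and density less affected; inactive means any of these conditions unmet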; further: one replicate is shown; some compounds called inactive have numbers as strong as hits
# Beta apoptosis = beta cell apoptosis inhibition. INS-1E cytokine-induced death, ATP luminescence, 48 h; percent of positive-control rescue, neutral wells zero. protection from apoptosis, % (test concentration not listed). 300,000 compounds, 0.8% hits;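 active means all replicates at 75% or more, or half of them and the mean; inconclusive means half reach 75% but not the mean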;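 further: 0% = cytokine-treated negative control wells and 100% = positive control rescue; higher means more ATP so stronger rescue from cytokine killing; wells of about 40 µL received 100 nL stock; the first replicate is given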
# MLL AF4-AF9 inh = blocks AF4 peptide binding to human AF9; AlphaScreen, biotin-AF4 peptide binding to FLAG-AF9; inhibition, % at 10 µM; 350,000 compounds, 0.47% hits; AID 651704;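 active means every replicate reaching a set inhibition limit, whatever the replicate mean, cut at about 25% in these data; inconclusive means mean inhibition reaches that limit but some replicates miss it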;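 further: 0% = plate neutral control median and 100% = total signal loss; the record names both 10 and 1 µM as test concentration; the first replicate is given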
# Target sequence (P42568 whole entry, looked up): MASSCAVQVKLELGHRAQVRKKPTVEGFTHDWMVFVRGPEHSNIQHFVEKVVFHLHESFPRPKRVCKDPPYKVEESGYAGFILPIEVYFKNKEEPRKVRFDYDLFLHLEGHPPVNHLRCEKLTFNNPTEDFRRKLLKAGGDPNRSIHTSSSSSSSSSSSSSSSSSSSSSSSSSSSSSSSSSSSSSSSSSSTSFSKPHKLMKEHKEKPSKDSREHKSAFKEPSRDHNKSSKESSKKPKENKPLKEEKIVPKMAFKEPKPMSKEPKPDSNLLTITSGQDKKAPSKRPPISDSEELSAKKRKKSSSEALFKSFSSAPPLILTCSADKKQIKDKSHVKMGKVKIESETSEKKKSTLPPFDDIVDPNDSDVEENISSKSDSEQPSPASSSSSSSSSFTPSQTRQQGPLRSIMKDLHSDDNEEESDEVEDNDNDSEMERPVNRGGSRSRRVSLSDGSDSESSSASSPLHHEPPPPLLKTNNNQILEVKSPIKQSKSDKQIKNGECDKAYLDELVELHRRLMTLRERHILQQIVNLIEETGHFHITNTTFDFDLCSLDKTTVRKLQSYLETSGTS
# T cruzi repl = blocks replication of Trypanosoma cruzi; T. cruzi beta-gal in NIH3T3, luminescence, 90 h; inhibition, % (concentration not given with the values); 300,000 compounds, 1.4% hits; AID 1885;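 active means mean inhibition across valid replicates above about 55%, limit read from the data; inconclusive means mean below that limit but half or more replicates reach it; inactive means mean below it, under half of replicates reach it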;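 further: signal also drops with host cell toxicity which is not excluded here; 0% = plate median of DMSO wells and 100% = zero luminescence signal; higher percent means less beta-gal luminescence so fewer parasites; stock transfer was 50 nL into about 50 µL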
# rRNA inh HTS OD600 = second read-out of rRNA inh HTS, no call of its own (marks repeat the call); OD600 change, %; measured here: OD600 growth;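 optical density of the mix in the first replicate; 0 = DMSO median and -100 = no signal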
# rRNA inh HTS RFP = recorded beside rRNA inh HTS, whose call it bears; RFP signal change, %; measured here: RFP humanized mutant strains;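 first replicate; 0 = DMSO median and -100 = no signal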
# * marks the source's active call; other numbers are inactive results; ? = inconclusive; . = not tested or not shown. Only part of the results is shown; count on the stated rates, not on these rows.
SMILES,A1 inh,RanGTP-Imp inh,Calb FLC,Vif A3G,rRNA inh HTS,rRNA inh HTS OD600,rRNA inh HTS RFP,Beta apoptosis,MLL AF4-AF9 inh,T cruzi repl
Oc1ccc(/C=N/Nc2cc(N3CCOCC3)nc(N3CCOCC3)n2)cc1,0.3,22.2*,-1.6,.,.,.,.,-0.9,.,46.5
CC(C)N(C(=O)C1CC(=O)OC12CCCCC2)C(C)C (stereo not given),-0.4,1.3,-8.5,-0.8%,8.2,-10.3,1.2,-1.5,.,-11.8
Cc1ccc(C)c(OCCCC(=O)O)c1,-0.9,5.9,4.6,-1.4%,.,.,.,3.1,.,-14.2
COc1ccc2cc(CCNC(=O)C(C)C)c(=O)[nH]c2c1,0.8,0.0,-0.2,-0.4%,9.9,13.3,0.9,-6.3,31.1*,-12.7
CN(C(=O)/C(N=Nc1cccc(C(F)(F)F)c1)=C(\O)C(F)(F)F)c1ccccc1,0.1,0.4,9.1,5.9%,.,.,.,25.4,.,-4.8
Cc1cc(-c2cc(-c3ccccc3)on2)nc(NCC2CC2)n1,-2.3,0.3,-9.8,2.0%,-2.6,4.6,-3.9,-9.0,-0.3,15.0
CCN(c1ccccc1)S(=O)(=O)c1ccc(C(=O)N(C)CCc2ccc(OC)c(OC)c2)cc1,0.2,-0.9,-4.0,.,-1.0,-6.9,-0.6,3.0,-1.0,4.4
CCOC(=O)C1(Cc2ccccc2C)CCCN(C(=O)c2ccc(OC)o2)C1 (stereo not given),0.9,7.9,6.5,.,-1.4,1.5,-0.7,-3.0,6.5,7.8
CCOC(=S)N/C(=N\S(C)(=O)=O)c1ccccc1,0.7,0.6,-6.5,-1.8%,9.6,4.6,-0.1,-3.5,3.5,-6.8
COc1cc(/C=N\NC(=O)c2ccc(C)nc2)ccc1OC(=O)c1cccc(F)c1,-0.4,0.7,-17.7,.,3.5,3.2,-0.9,3.0,-1.2,-5.9
CC(=O)N1CCN(C(=S)c2cccc([N+](=O)[O-])c2)CC1,-0.4,-1.9,-3.7,24.4%,5.8,7.0,-11.3,-0.6,4.7,-15.1
O=C(Nc1cccc(-c2csc(Nc3ccccc3)n2)c1)c1cc([N+](=O)[O-])cc(C(F)(F)F)c1,1.0,-0.8,2.4,.,7.5,8.0,-5.7,7.6,3.6,41.7

# Filtered by structure, the compounds so far with a halogen (3)
SMILES,A1 inh,RanGTP-Imp inh,Calb FLC,Vif A3G,rRNA inh HTS,rRNA inh HTS OD600,rRNA inh HTS RFP,Beta apoptosis,MLL AF4-AF9 inh,T cruzi repl
CN(C(=O)/C(N=Nc1cccc(C(F)(F)F)c1)=C(\O)C(F)(F)F)c1ccccc1,0.1,0.4,9.1,5.9%,.,.,.,25.4,.,-4.8
COc1cc(/C=N\NC(=O)c2ccc(C)nc2)ccc1OC(=O)c1cccc(F)c1,-0.4,0.7,-17.7,.,3.5,3.2,-0.9,3.0,-1.2,-5.9
O=C(Nc1cccc(-c2csc(Nc3ccccc3)n2)c1)c1cc([N+](=O)[O-])cc(C(F)(F)F)c1,1.0,-0.8,2.4,.,7.5,8.0,-5.7,7.6,3.6,41.7

# Next section.
SMILES,A1 inh,RanGTP-Imp inh,Calb FLC,Vif A3G,rRNA inh HTS,rRNA inh HTS OD600,rRNA inh HTS RFP,Beta apoptosis,MLL AF4-AF9 inh,T cruzi repl
Cc1ccc(O)c(NC(=O)c2cc(-c3ccco3)on2)c1,-3.2,-1.8,-3.1,.,0.7,2.4,-1.7,-5.4,0.9,-12.3
COc1c2c(nc3occc13)C(CC=C(C)C)(OC)C(O)CC2 (stereo not given),0.2,3.8,6.3,3.6%,.,.,.,-1.1,-1.7,-8.1
COc1cc(C(Nc2ccc(S(=O)(=O)NCC3CCCO3)cc2)C(=O)NC(C)(C)C)cc(OC)c1OC (stereo not given),0.0,-2.5,1.6,2.0%,4.4,6.6,1.1,-1.7,-0.5,11.0
Cc1cc2cc(C#N)c(NCCNC(=S)NCCCN3CCOCC3)nc2cc1C,-0.2,?,6.4,.,-8.6,-13.6,1.0,-6.0,0.1,13.5
O=S(=O)(NC1CC1)c1ccc(S(=O)(=O)N2CCC3(CC2)OCCO3)cc1,0.0,?,11.6,6.4%,-3.4,0.9,0.5,-0.3,-0.8,-4.4
Cc1nn(C(=O)c2ccco2)c(C)c1CN1C(=O)c2ccccc2C1=O,-0.1,19.8*,-7.1,1.0%,.,.,.,1.6,.,-15.9
S=C(c1cn(Cc2ccccc2)c2ccccc12)N1CCOCC1,0.0,-1.3,16.0,-3.8%,-28.7*,-22.4*,-2.8*,.,14.0,-5.3
Cc1ccc(C(=O)CCNc2ccc(F)c(Cl)c2)o1,-1.2,4.0,3.0,23.7%,.,.,.,-5.9,.,14.9
C=CCNc1nc(Cl)nc(Nc2cc(Cl)ccc2OC)n1,0.2,4.5,-2.5,.,9.0,8.8,0.6,2.7,1.5,20.1
CCC1CCCCN1CCCNC(=O)C1CCN(S(=O)(=O)N2CCC3(CC2)OCCO3)CC1 (stereo not given),0.2,-1.5,-0.6,-1.6%,8.5,3.7,2.4,-6.5,8.8,6.8
CCOc1ccc(CN2CCC(n3nccc3NC(=O)CCCc3ccccc3)CC2)cc1,-1.0,3.2,-35.4,.,3.3,-8.0,2.7,1.0,5.0,20.6
CC[C@@H](C)[C@H](NC(=O)OCc1ccccc1)c1nnc([C@@H](NC(=O)OCc2ccccc2)[C@@H](C)CC)o1,2.4,1.5,-2.5,.,5.3,6.5,-2.1,14.9,3.4,32.2

# Rewritten field by field: entries from further up.
Cc1cc(-c2cc(-c3ccccc3)on2)nc(NCC2CC2)n1
  A1 inh = -2.3 | RanGTP-Imp inh = 0.3 | Calb FLC = -9.8 | Vif A3G = 2.0% | rRNA inh HTS = -2.6 | rRNA inh HTS OD600 = 4.6 | rRNA inh HTS RFP = -3.9 | Beta apoptosis = -9.0 | MLL AF4-AF9 inh = -0.3 | T cruzi repl = 15.0
CCOC(=O)C1(Cc2ccccc2C)CCCN(C(=O)c2ccc(OC)o2)C1 (stereo not given)
  A1 inh = 0.9 | RanGTP-Imp inh = 7.9 | Calb FLC = 6.5 | Vif A3G = . | rRNA inh HTS = -1.4 | rRNA inh HTS OD600 = 1.5 | rRNA inh HTS RFP = -0.7 | Beta apoptosis = -3.0 | MLL AF4-AF9 inh = 6.5 | T cruzi repl = 7.8
Cc1ccc(O)c(NC(=O)c2cc(-c3ccco3)on2)c1
  A1 inh = -3.2 | RanGTP-Imp inh = -1.8 | Calb FLC = -3.1 | Vif A3G = . | rRNA inh HTS = 0.7 | rRNA inh HTS OD600 = 2.4 | rRNA inh HTS RFP = -1.7 | Beta apoptosis = -5.4 | MLL AF4-AF9 inh = 0.9 | T cruzi repl = -12.3

# (listing goes on)
SMILES,A1 inh,RanGTP-Imp inh,Calb FLC,Vif A3G,rRNA inh HTS,rRNA inh HTS OD600,rRNA inh HTS RFP,Beta apoptosis,MLL AF4-AF9 inh,T cruzi repl
CCOc1cc2[nH]c(=S)n(Cc3ccc(C(=O)NCC(OC)OC)cc3)c(=O)c2cc1OCC,1.2,-0.9,-7.3,0.2%,.,.,.,8.0,.,12.7
CC(C)Oc1cccc(C(=O)Nc2ccc(N3CCN(C)CC3)cc2)c1,-0.3,3.2,-7.2,1.5%,5.5,9.1,0.3,-10.9,-1.0,20.7
O=C(NCc1ccccc1)C1CCC(=O)N(CCCN2CCCC2=O)C1 (stereo not given),-0.3,3.8,-0.1,.,-0.8,-2.7,-1.2,-7.7,-0.7,1.1
CCN(C(=O)CSc1nc2ccc([N+](=O)[O-])cc2s1)C1CCS(=O)(=O)C1 (stereo not given),0.4,-2.8,1.7,3.0%,-8.5,1.8,0.7,4.5,-4.6,8.1
COc1cc(SC)ccc1C(=O)N(C)CC(=O)Nc1cccc2ccccc12,-0.9,.,.,.,-0.6,-18.4,6.3,-0.9,2.2,.
Cc1c(C(=O)N2CCCCC2)c(S(=O)(=O)N2CCN(c3ccc(Cl)cc3)CC2)c(C)n1C,-0.6,4.1,-7.7,-0.2%,4.5,-17.1,15.0,.,6.0,21.3
O=C(NC1CCCCC1)c1cc(S(=O)(=O)N2CCOCC2)c(Cl)cc1Cl,-0.6,?,10.2,.,3.8,14.3,0.0,-2.3,1.6,4.5
CS(=O)(=O)N1CCN(c2ccc(NC(=O)COc3ccccc3[N+](=O)[O-])cc2)CC1,0.9,-0.2,-5.2,.,4.8,14.3,-1.3,9.6,-2.3,-4.0
CC(C)N(Cc1nc(-c2ccccc2)no1)C(=O)CN(C)S(=O)(=O)c1ccc(Br)cc1,0.4,.,-9.0,1.4%,.,.,.,2.2,.,-9.3
Cn1cnc(C(F)(F)F)c1-c1ccc([N+](=O)[O-])cc1,0.2,-1.9,-14.1,?,.,.,.,-9.4,.,-4.9
Cc1nc2cc3nc(C(F)(F)F)[nH]c3cc2[nH]1,0.5,0.0,5.8,-0.3%,.,.,.,0.1,0.6,3.0
CCN(CC(=O)Nc1ccc(NC(C)=O)cc1)C(=O)/C=C/c1ccccc1,-1.0,1.1,-6.2,-1.1%,2.1,4.4,-1.0,-4.2,-8.0,-1.7
N#Cc1ccc(NC(=O)CN2C(=O)NC3(CCCC3)C2=O)cc1,1.5,-0.3,-6.1,.,-5.1,-1.4,-3.5,-2.7,-1.2,-11.4
Cc1ccnc(NC(=O)/C=C/c2cccs2)c1,0.2,-2.1,-3.4,.,.,.,.,-6.3,.,-4.9
CCC(C)NC(=O)CSc1ncccc1C(=O)O (stereo not given),-0.4,-6.1,0.3,3.2%,.,.,.,-2.7,.,-27.3
Cc1ccccc1CN1C[C@@H]2C[C@@H](c3cn(C)nc3-c3ccccc3)N3CCC[C@@]23C1=O,-0.3,-2.8,-2.6,.,6.1,12.8,16.8,-2.5,-4.6,33.2
CCOC(=O)c1c(S(=O)(=O)N2CCC(C)CC2)c(C)n(C)c1C,-0.3,0.9,-17.2,.,12.6,15.4,2.8,-6.1,0.5,-1.8
CCC(=O)c1cc(F)ccc1OCC(=O)N1CCN(c2ccc(F)cc2)CC1,-0.1,-0.5,-3.7,.,-33.2,-59.1,2.8,7.0,2.7,-6.3
Cc1ccc(C(=O)N2CCCCC2)cc1S(=O)(=O)N1CCOCC1,-0.2,7.1,-8.4,.,11.2,6.6,0.8,.,-1.2,-0.8
N#Cc1ccccc1OCC(=O)Nc1cccc(S(=O)(=O)N2CCCCCC2)c1,-0.6,.,.,-5.5%,-3.1,-3.5,6.6,-3.6,-2.5,.
CC(C)(C)NC(=O)C(c1ccccn1)N(C(=O)C1CSC(=O)C1)c1ccccc1F (stereo not given),0.7,-14.1,1.2,-1.8%,11.1,5.5,0.3,-3.7,-1.3,-4.5
Cc1csc(NC(=O)c2cccnc2)n1,0.7,0.9,-4.6,.,10.3,9.9,10.4,-14.0,-1.3,-7.2
